High-throughput results deposited in PubChem by Johns Hopkins Ion Channel Center.
KCNQ2 inh: KCNQ2 potassium channel inhibitors, primary screen, cell-based, CHO-K1, FluxOR thallium flux, B-score (AID 2156). O88943. B-score at 10 µM. 310,000 tested, 1.1% active. 20 min; active compounds read low; only compounds with negative scores are shown here; some inactives read as strong as hits;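 active = fluorescence ratio B-score at most minus 3 library SDs, with starting brightness B-score within 2 library SDs, cut at about -5.5 in these data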
Target sequence (O88943 whole entry, looked up): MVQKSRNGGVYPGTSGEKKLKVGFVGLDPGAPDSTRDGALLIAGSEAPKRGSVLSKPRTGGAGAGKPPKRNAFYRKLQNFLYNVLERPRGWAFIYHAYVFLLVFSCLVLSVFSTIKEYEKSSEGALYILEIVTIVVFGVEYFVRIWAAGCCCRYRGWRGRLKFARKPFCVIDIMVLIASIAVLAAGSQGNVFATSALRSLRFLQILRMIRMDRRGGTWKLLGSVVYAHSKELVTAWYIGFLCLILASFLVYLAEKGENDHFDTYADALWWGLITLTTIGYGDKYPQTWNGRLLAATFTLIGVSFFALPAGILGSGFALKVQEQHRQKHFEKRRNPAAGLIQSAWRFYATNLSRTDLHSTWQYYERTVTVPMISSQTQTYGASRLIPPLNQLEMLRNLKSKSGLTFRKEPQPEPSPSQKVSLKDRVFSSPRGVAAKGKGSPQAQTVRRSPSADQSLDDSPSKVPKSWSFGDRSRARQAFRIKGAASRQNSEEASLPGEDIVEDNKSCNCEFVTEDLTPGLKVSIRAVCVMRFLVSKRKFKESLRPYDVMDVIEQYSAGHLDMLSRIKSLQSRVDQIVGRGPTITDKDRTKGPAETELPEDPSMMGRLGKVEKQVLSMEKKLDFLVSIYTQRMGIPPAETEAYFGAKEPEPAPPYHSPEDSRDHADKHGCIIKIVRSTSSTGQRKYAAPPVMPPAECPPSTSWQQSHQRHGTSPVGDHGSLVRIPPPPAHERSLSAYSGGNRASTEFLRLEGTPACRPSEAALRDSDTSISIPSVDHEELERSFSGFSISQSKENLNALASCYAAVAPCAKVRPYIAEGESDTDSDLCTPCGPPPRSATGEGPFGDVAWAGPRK
KCNQ2 inh baseline: recorded beside KCNQ2 inh, whose call it bears; B-score; measured here: initial fluorescence intensity artifact check;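 brightness before thallium and not channel activity; 0 = typical well and far values either way flag optical interference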
The depositor's hits bear a star; i = inactive. Not all compounds are listed (hit frequency here may not be typical).

SMILES	KCNQ2 inh	KCNQ2 inh baseline
Cc1cc(N2CCC(C)CC2)nc(-c2ccccc2O)n1	i	-1.27
CCOC(=O)C1CCCN(Cc2c(C(=O)N3CCCCC3)nc3c(C)cccn23)C1 (stereo not given)	i	0.97
COCCc1ncc(CN2CCCCC2C(=O)Nc2ccc(Oc3ccccc3)nc2)cn1 (stereo not given)	i	0.12
CCCNS(=O)(=O)c1ccc(OCC(=O)NCCCOC)cc1	i	0.11
O=C(NCCc1ccccc1)C1CCC(CNS(=O)(=O)c2cccc3cccnc23)CC1 (stereo not given)	i	-0.19
Cc1cc(C(=O)O)c(CSCc2cc(C(=O)O)oc2C)o1	i	-0.02
COc1cc2c(cc1OC)CN(C(=O)CCOc1ccccc1C)CC2	i	-1.05
COc1ccc(CCN(C)CC(=O)Nc2ccc(F)c(Cl)c2)cc1OC	i	0.71
COc1ccc(C(=O)Nn2c(C)nc3ccccc3c2=O)cc1[N+](=O)[O-]	i	0.75
CN1CCN(C(=O)C2=C[C@H](c3coc4ccccc4c3=O)C[C@H](OCc3ccc(CO)cc3)O2)CC1	i	-0.04
CC1=N/C(=C\c2ccc([N+](=O)[O-])cc2)C(=O)N1c1ccc(Cl)cc1	i	1.26
COC(=O)CSc1nnc(C)c(=O)[nH]1	i	-0.17
CCc1ccc2c(c1)C(c1ccc([N+](=O)[O-])cc1)=NNC(c1ccc(Br)cc1)=N2	i	0.87
CCc1ccc(-c2cc(C)no2)cc1S(=O)(=O)N1CCN(c2cc(C)ccc2C)CC1	i	0.4
c1ccc(Cn2nnnc2C(c2cccs2)N2CCSCC2)cc1 (stereo not given)	i	0.09
Cc1cc([N+](=O)[O-])ccc1NC(=O)CCC(=O)N1CCCCCC1	i	2.12
Cc1cc(C(=O)COc2ccc(-c3nnco3)cc2)c(C)n1Cc1ccccc1	i	1.07
Cc1cc(C)cc(-n2ncc3c2CCCC3NC(=O)c2cc(C)oc2C)c1 (stereo not given)	i	-0.21
COc1ccc(-n2cnnc2)cc1	i	0.45
CCCN1Cc2cccc(C(=O)NC(CC(=O)OCC)c3ccc(OC(C)C)cc3)c2C1=O (stereo not given)	i	-0.56
O=C(Cc1ccsc1)NCC(c1ccco1)N1CCCCC1 (stereo not given)	i	0.06
O=C(Cc1c[nH]c2ccccc12)N1CCN(c2ccccc2)CC1	i	2.96
COc1ccc(S(=O)(=O)N(c2onc(C)c2Cl)S(=O)(=O)c2ccc(OC)c(OC)c2)cc1OC	i	-0.49
CC(=O)C1=C(C)NC(=S)NC1c1cc([N+](=O)[O-])ccc1O (stereo not given)	i	-1.84
COc1ccccc1CNC(=O)C(=O)NCC1OCCCN1S(=O)(=O)c1ccc(F)cc1C (stereo not given)	i	-0.55

5 entries from above, with two lines to a compound:
Second line of a record – KCNQ2 inh, KCNQ2 inh baseline
> Cc1cc(C(=O)O)c(CSCc2cc(C(=O)O)oc2C)o1
  i, -0.02
> Cc1cc([N+](=O)[O-])ccc1NC(=O)CCC(=O)N1CCCCCC1
  i, 2.12
> COc1ccc(CCN(C)CC(=O)Nc2ccc(F)c(Cl)c2)cc1OC
  i, 0.71
> Cc1cc(N2CCC(C)CC2)nc(-c2ccccc2O)n1
  i, -1.27
> CCc1ccc2c(c1)C(c1ccc([N+](=O)[O-])cc1)=NNC(c1ccc(Br)cc1)=N2
  i, 0.87

Returning to the listing, starting 7 compounds before the break.
SMILES	KCNQ2 inh	KCNQ2 inh baseline
COc1ccc(-n2cnnc2)cc1	i	0.45
CCCN1Cc2cccc(C(=O)NC(CC(=O)OCC)c3ccc(OC(C)C)cc3)c2C1=O (stereo not given)	i	-0.56
O=C(Cc1ccsc1)NCC(c1ccco1)N1CCCCC1 (stereo not given)	i	0.06
O=C(Cc1c[nH]c2ccccc12)N1CCN(c2ccccc2)CC1	i	2.96
COc1ccc(S(=O)(=O)N(c2onc(C)c2Cl)S(=O)(=O)c2ccc(OC)c(OC)c2)cc1OC	i	-0.49
CC(=O)C1=C(C)NC(=S)NC1c1cc([N+](=O)[O-])ccc1O (stereo not given)	i	-1.84
COc1ccccc1CNC(=O)C(=O)NCC1OCCCN1S(=O)(=O)c1ccc(F)cc1C (stereo not given)	i	-0.55
COc1cccc(C(=O)Nc2nnc(S(=O)(=O)N3CCOCC3)s2)c1	i	0.24
CCc1ccccc1N(CC)C(=O)c1cn(C)c(=O)c2cc(OC)c(OC)cc12	i	0.12
CC(C)N1CCN(Cc2ccc(C#CCCO)cc2)CC1CCO (stereo not given)	i	0.63
CCS(=O)(=O)n1nc(-c2ccc(Cl)cc2)nc1SC	i	-0.16
CCCCOCCCNS(=O)(=O)c1ccccc1	i	-0.57
CN1CCC(=NNC(=O)c2cc(-c3ccc(Cl)cc3)n[nH]2)CC1	i	1.7
CCCCn1cnc2c(cnn2-c2ccc(Cl)cc2)c1=O	i	-1.06
COc1cc2c(cc1OC)CN(C(=O)c1ccc(S(=O)(=O)N3CCCCC3)cc1)CC2	i	0.6
COc1ccc(CN(C)C(C)C(=O)Nc2ccc(S(=O)(=O)N3CCOCC3)cc2)c(OC)c1 (stereo not given)	i	-0.01
CCN1CCCC1CNC(=O)c1ccc2c(c1)NC(=O)/C(=C\c1ccc(OC)c(OC)c1)S2 (stereo not given)	i	-0.82
O=C(Nc1cccc(-c2nnc(-c3ccccc3)o2)c1)C1CCCO1 (stereo not given)	i	1.71
COc1ccccc1NC(=O)CSc1nnnn1C	i	-1.06
C=CCn1c(=O)n(CCOC)c(=O)c2sc3ccccc3c21	i	0.38
COC(=O)C1CC(O)CN1C(=O)Nc1cccc(C(F)(F)F)c1 (stereo not given)	i	-0.1
CCOC(=O)c1c(NC(=O)CSc2nc3ccccc3o2)sc(C(C)=O)c1C	i	-1.79
O=C(COC(=O)c1ccc(Cl)nc1)Nc1c(Cl)cccc1C(F)(F)F	i	-0.66
CCCCOc1ccc(N(CC(=O)NC2CCCCC2)C(=O)CCC(=O)Nc2ccccn2)cc1	i	-0.68
Cc1c(/C=N/NC(=O)C(C)(C)Oc2ccc(Cl)cc2)cnn1C	i	0.71
CC(c1ccccn1)N(Cc1ccco1)C(=S)Nc1cccc(F)c1 (stereo not given)	i	-1.69
Cc1ccsc1CN(C)C(=O)c1ccc(Oc2ccccc2)cc1	i	-1.52
O=C(COc1ccc(Cl)cc1Cl)NC(=S)N1CCCc2ccccc21	i	-2.67
CNc1ccc(/C=C/C(=O)c2cccc3ccccc23)cc1[N+](=O)[O-]	i	0.43
Cc1ccc(NC(=O)Cc2cc(C(=O)O)c3ccccc3n2)c(C)c1	i	-0.79
Cc1ccc(S(=O)(=O)NC(C)C(=O)NC2CCCCCC2)cc1 (stereo not given)	i	-0.09
Cn1c2c(c(=O)n(C)c1=O)CN(Cc1ccc(F)cc1)CN2	i	-0.17

(more compounds)
SMILES	KCNQ2 inh	KCNQ2 inh baseline
COc1ccc(N2CCN(C(=O)CNC(=O)c3cn(-c4ccccc4OC)c(=O)c4ccccc34)CC2)cc1	i	-0.27
O=C1NC(c2cc3c(cc2Cl)OCO3)Oc2ccccc21 (stereo not given)	i	2.05
O=C(CSc1nnc(COc2ccccc2)n1-c1ccccc1)c1ccccc1	i	-0.6
O=C(Nc1ccc(O)cc1)/C(=C\c1cccs1)NC(=O)c1ccccc1	i	-1.79
Cc1cc(=O)oc2cc(OCC(=O)Nc3nccs3)ccc12	i	1.03
O=C(Cn1nnc2ccccc2c1=O)N[C@H](C(=O)O)c1ccccc1	i	-0.14
O=C(Nc1ccccn1)c1ccc(COc2ccccc2Cl)o1	i	-0.92
Cc1ccc(CCN2CC(C(=O)NCCCN3CCCCCC3)CC2=O)cc1 (stereo not given)	i	0.05
O=S(=O)(Nc1cccc2ccccc12)c1cccc2nonc12	i	-1.19
COc1cc(C(O)P(=O)(OCCC(C)C)c2ccc(N(C)C)cc2)cc(OC)c1OC (stereo not given)	i	-0.09
CCOCCCNC(=O)C(c1ccc(Cl)cc1)N(Cc1cccs1)C(=O)c1ccccn1 (stereo not given)	i	-0.64
CCCN(CCC)Cc1cc2ccccc2c2c1COC2	i	0.01
COC(=O)C1C(=O)C2=C(CC1C)NC(=O)CC2c1ccccc1 (stereo not given)	i	0.04
O=C(O)Cc1sc(NC2CCCCC2)nc1-c1ccc(Cl)cc1	i	4.85
Cc1nn(C)c(C)c1S(=O)(=O)N1CCC(C(=O)NC2CCCc3ccccc32)CC1 (stereo not given)	i	1.89
COc1cccc2cc(C(=O)CS(=O)(=O)c3ccc(Cl)cc3)c(=O)oc12	i	0.78
C/C(=N\NC(=O)Cc1cccn1C)c1ccc2ccccc2c1	i	0.2
O=c1oc2cc(O)ccc2cc1-c1ccccc1	i	-0.09
